From PubChem BioAssay
Ecoli rRNA inh: reduced GFP signal of wild-type E. coli, primary screen, bacterial rRNA inhibitor project, GFP/RFP fluorescence, OD600, single point. GFP signal change (wild-type ribosome), % (test concentration not listed). actives 1.6% (n = 350,000). AID 720706, 2013. E. coli WT GFP vs humanized-ribosome RFP mutants, 24 h; active compounds read low; DMSO median 0, no signal -100;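 active = significant combined selectivity score with lowered wild-type GFP, culture density cut under 30%, mutant RFP and density less affected; inactive = any of these conditions unmet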; also: one replicate is shown; some compounds called inactive have numbers as strong as hits
AF4-AF9 inh: inhibitors of AF4 peptide binding to AF9, primary screen, biochemical, AlphaScreen, biotin-AF4 peptide, FLAG-AF9, single point; Protein AF-9 (Homo sapiens), P42568; actives 0.47% (n = 350,000); inhibition, % at 10 µM;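 active = every replicate reaching a set inhibition limit, whatever the replicate mean, cut at about 25% in these data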;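 also: 0% = plate neutral control median and 100% = total signal loss; the record names both 10 and 1 µM as test concentration; the first replicate is given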
Target sequence (P42568 whole entry, looked up): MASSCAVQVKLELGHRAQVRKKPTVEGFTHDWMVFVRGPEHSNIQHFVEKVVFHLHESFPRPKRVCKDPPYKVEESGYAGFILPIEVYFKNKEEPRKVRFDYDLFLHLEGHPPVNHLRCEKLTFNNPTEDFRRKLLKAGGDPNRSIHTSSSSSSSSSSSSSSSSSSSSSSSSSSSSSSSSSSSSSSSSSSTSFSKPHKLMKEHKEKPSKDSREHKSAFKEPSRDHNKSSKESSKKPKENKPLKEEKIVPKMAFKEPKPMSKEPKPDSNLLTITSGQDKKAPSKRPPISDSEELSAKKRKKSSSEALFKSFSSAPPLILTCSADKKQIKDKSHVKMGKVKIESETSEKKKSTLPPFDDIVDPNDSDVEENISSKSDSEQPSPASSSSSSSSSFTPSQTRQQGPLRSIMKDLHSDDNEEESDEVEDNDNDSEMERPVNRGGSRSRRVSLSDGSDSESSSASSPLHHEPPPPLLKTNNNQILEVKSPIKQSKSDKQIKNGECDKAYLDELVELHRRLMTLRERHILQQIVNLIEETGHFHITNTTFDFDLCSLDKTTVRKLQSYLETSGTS
FGF22 binding: binders of human FGF22 protein, primary screen, FGF22 synaptogenesis inhibitor project, biophysical, thermal shift, single point; Fibroblast growth factor 22 (Homo sapiens), Q9HCT0; recombinant FGF22 thermal shift, SYPRO orange fluorescence; percent of sucrose octasulfate shift, DMSO zero; actives 1.5% (n = 340,000); calls only at 9.99 µM; AID 651658, 2012;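 active = melting point raised past a set limit in the mean and every replicate; three in four hits are not shown here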
Target sequence (Q9HCT0 whole entry, looked up): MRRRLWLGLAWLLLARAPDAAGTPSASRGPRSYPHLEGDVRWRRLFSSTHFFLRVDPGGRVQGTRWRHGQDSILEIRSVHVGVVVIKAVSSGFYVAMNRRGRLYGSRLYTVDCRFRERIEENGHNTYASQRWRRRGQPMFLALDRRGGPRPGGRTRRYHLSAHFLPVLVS
Ecoli rRNA inh OD600: second read-out of Ecoli rRNA inh, no call of its own (marks repeat the call); OD600 change, %; measured here: OD600 growth;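 optical density of the mix in the first replicate; 0 = DMSO median and -100 = no signal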
Ecoli rRNA inh RFP: recorded beside Ecoli rRNA inh, whose call it bears; RFP signal change, %; measured here: RFP humanized mutant strains;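 first replicate; 0 = DMSO median and -100 = no signal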
Numbers without * were called inactive; i = inactive; . = no result given; + = active, no number. A portion of the library; count on the stated rates, not on these rows.

no.	canonical_smiles	FGF22 binding	Ecoli rRNA inh OD600	Ecoli rRNA inh
1	CC(C)NC(=O)N1[C@H](CO)[C@@H]2c3ccccc3N(C(=O)Nc3cccc(Cl)c3)C[C@@H]21	i	-2	-5
2	N#C[C@@H]1[C@H](c2ccccc2)[C@H](CO)N1C(=O)c1cccnc1	i	1	3
3	CO[C@H]1CN(C)C(=O)c2cc(NC(=O)Nc3cc(F)ccc3F)ccc2OC[C@H](C)N(C(=O)c2cnccn2)C[C@@H]1C	i	-4	-1
4	O=C(N[C@H]1CC[C@@H](CCNS(=O)(=O)c2ccccc2)O[C@@H]1CO)c1cccc(F)c1	i	5	1
5	C[C@H]1CN([C@@H](C)CO)C(=O)c2cc(NS(=O)(=O)c3cccs3)ccc2O[C@@H]1CN(C)S(=O)(=O)c1ccccc1	i	-8	-2
6	O=C(C[C@@H]1CC[C@@H]2[C@H](COC[C@@H](O)CN2Cc2cc(F)ccc2F)O1)NCc1ccccc1	i	-6	-6
7	C[C@@H]1CN([C@H](C)CO)C(=O)c2cc(NC(=O)CCC(F)(F)F)ccc2O[C@@H]1CN(C)C(=O)Nc1ccccc1	i	2	1
8	Cc1ccc(-c2nc(SC(C)C(=O)NC3CC3)n[nH]2)cc1 (centres undefined)	i	12	6
9	C[C@@H]1CN([C@H](C)CO)C(=O)c2cc(NC(=O)Cc3cn(C)c4ccccc34)ccc2O[C@H]1CN(C)C(=O)NC1CCCCC1	i	-6	-2
10	CO[C@H]1CN(C)C(=O)c2cc(NC(=O)c3ccc(F)cc3)ccc2OC[C@H](C)N(C(=O)c2ccc(F)cc2)C[C@@H]1C	i	-4	-4

no.	Ecoli rRNA inh RFP	AF4-AF9 inh
1	2.0	0.5
2	-5.1	-2.0
3	1.6	1.6
4	0.6	-2.5
5	3.5	-1.0
6	-2.5	-0.1
7	0.7	-9.8
8	-0.8	-2.7
9	-0.6	0.9
10	2.8	1.8

Later entries
no.	canonical_smiles	FGF22 binding	Ecoli rRNA inh OD600	Ecoli rRNA inh
11	C[C@@H]1CCCCO[C@@H](CN(C)C(=O)CCCN(C)C)[C@@H](C)CN([C@@H](C)CO)C(=O)c2cc(N(C)C)ccc2O1	i	4	-1
12	COc1ccc(NC(=O)Nc2ccc3c(c2)C(=O)N([C@H](C)CO)C[C@@H](C)[C@@H](CN(C)Cc2ccc(C(=O)O)cc2)OCCCC[C@H](C)O3)cc1	i	-1	1
13	O=C(Nc1ccc(F)cc1)N[C@@H]1CC[C@H](CCn2cc(-c3ccc(F)cc3)nn2)O[C@H]1CO	+	-1	2
14	COc1ccc(NC(=O)Nc2cccc3c2O[C@@H](CN(C)Cc2ccc(C(=O)Nc4ccccc4N)cc2)[C@@H](C)CN([C@H](C)CO)C3=O)cc1	i	2	-3
15	Cc1ccc(S(=O)(=O)Nc2ccc3c(c2)C(=O)N([C@H](C)CO)C[C@@H](C)[C@H](CN(C)S(=O)(=O)c2cccs2)O3)cc1	i	4	-1
16	C#CCOCCOCCOCCNc1nc(N2CCN(C(=O)Cn3cc(CCO)nn3)CC2)nc(N2CCN(C(=O)[C@H]([C@@H](C)CC)n3cc(CCCCN)nn3)CC2)n1	i	9	11
17	Cc1cc(C(=O)COC(=O)c2nn(C)c(=O)c3ccccc23)c(C)n1C	i	17	8
18	COCC(=O)N1[C@@H]2CN(C(=O)c3cccnc3)c3ccccc3[C@@H]2[C@@H]1CO	i	4	2
19	COc1cccc(NC(=O)N[C@H]2C=C[C@@H](CC(=O)NCc3ccccn3)O[C@@H]2CO)c1	i	3	0
20	CO[C@H]1CN(C)C(=O)c2ccc(NC(=O)c3cccc(F)c3)cc2OC[C@@H](C)N(CC2CC2)C[C@@H]1C	i	2	1

no.	Ecoli rRNA inh RFP	AF4-AF9 inh
11	-3.0	-16
12	0.4	1.6
13	0.0	-17
14	-0.2	-0.7
15	0.6	-2.0
16	-1.4	-3.6
17	-1.4	-5.0
18	-0.2	-1.8
19	1.5	-0.1
20	0.8	0.0

Further records
no.	canonical_smiles	FGF22 binding	Ecoli rRNA inh OD600	Ecoli rRNA inh
21	CCNC(=O)C[C@H]1CC[C@H](NS(=O)(=O)c2ccc(F)cc2)[C@@H](CO)O1	i	3	-3
22	COc1ccc(CN(C)C[C@H]2OCCCC[C@H](C)Oc3ccc(NC(=O)Nc4cccc5ccccc45)cc3C(=O)N([C@@H](C)CO)C[C@@H]2C)cc1	i	-17	-4
23	C[C@H](CO)N1C[C@H](C)[C@H](CN(C)Cc2ccc(C(=O)O)cc2)Oc2c(NC(=O)C3CCCCC3)cccc2C1=O	i	4	3
24	Cc1ccc(S(=O)(=O)N(C)C[C@H]2Oc3ccc(NS(=O)(=O)c4cccs4)cc3C(=O)N([C@H](C)CO)C[C@@H]2C)cc1	i	-5	-4
25	O=S(=O)(NC[C@H]1N[C@H](CO)[C@@H]1c1ccccc1)c1ccccc1	i	-9	0
26	C[C@@H]1CN([C@@H](C)CO)C(=O)c2cc(-c3cccc(C#N)c3)cnc2O[C@@H]1CN(C)C(=O)C1CCOCC1	i	1	6
27	O=C(CC1CC2CCC1C2)N1CCN(S(=O)(=O)c2ccc(F)cc2)CC1 (centres undefined)	i	0	-3
28	C[C@H]1CN([C@@H](C)CO)C(=O)Cc2cc(NS(=O)(=O)c3cn(C)cn3)ccc2O[C@@H]1CN(C)C	i	-1	2
29	CO[C@H]1CN(C)C(=O)c2cc(NC(=O)C3CC3)ccc2OC[C@@H](C)N(C(=O)c2ccncc2)C[C@H]1C	i	-1	-1
30	Cc1cc(Oc2cccc3c2S(=O)(=O)N([C@H](C)c2ccccc2)C[C@@H](COCc2ccccc2)O3)cc(C)c1C	i	9	23

no.	Ecoli rRNA inh RFP	AF4-AF9 inh
21	-1.0	-2.6
22	14	5.4
23	1.6	-3.6
24	-0.5	1.6
25	0.8	1.4
26	1.3	-4.5
27	-0.1	1.9
28	-4.3	-1.8
29	-0.8	10
30	-1.4	0.8

Part of the list above, showing only Ecoli rRNA inh OD600, Ecoli rRNA inh RFP and AF4-AF9 inh.
nr | Structure | Ecoli rRNA inh OD600 | Ecoli rRNA inh RFP | AF4-AF9 inh
28 | C[C@H]1CN([C@@H](C)CO)C(=O)Cc2cc(NS(=O)(=O)c3cn(C)cn3)ccc2O[C@@H]1CN(C)C | -1 | -4.3 | -1.8
29 | CO[C@H]1CN(C)C(=O)c2cc(NC(=O)C3CC3)ccc2OC[C@@H](C)N(C(=O)c2ccncc2)C[C@H]1C | -1 | -0.8 | 10
30 | Cc1cc(Oc2cccc3c2S(=O)(=O)N([C@H](C)c2ccccc2)C[C@@H](COCc2ccccc2)O3)cc(C)c1C | 9 | -1.4 | 0.8

Following part.
no.	canonical_smiles	FGF22 binding	Ecoli rRNA inh OD600	Ecoli rRNA inh
31	CN1C(=O)c2cc(NC(=O)c3ccc(C(F)(F)F)cc3)ccc2OC[C@H]2O[C@@H](CC(=O)O)CC[C@H]21	i	5	-3
32	CCS(=O)(=O)N(C)C[C@H]1OCc2ccccc2-c2c(n(C)c3ccccc23)C(=O)N([C@H](C)CO)C[C@H]1C	i	0	1
33	COc1cccc(C(=O)Nc2ccc3c(c2)C(=O)N(C)C[C@H](OC)[C@@H](C)CN(CC2CC2)[C@@H](C)CO3)c1	i	0	-2
34	Cc1cc(Br)cn2c(Cc3ccccc3C(F)(F)F)c(-c3ccc(Cl)cc3)nc12	i	-2	4
35	CNC[C@@H]1Oc2c(NC(=O)C3CC3)cccc2C(=O)N([C@@H](C)CO)C[C@@H]1C	i	14	4
36	N#C[C@H]1[C@@H](c2ccc(C#Cc3cccc(F)c3)cc2)[C@H](CO)N1C(=O)C1CCC1	i	-75	-57
37	O=C(C[C@@H]1CC[C@@H]2[C@H](COC[C@@H](O)CN2Cc2cccc(Cl)c2)O1)N1CCCCC1	i	2	-5
38	COc1cccc(C(=O)Nc2ccc3c(c2)C(=O)N(C)[C@H]2CC[C@@H](CC(=O)N[C@@H](C)c4ccccc4)O[C@H]2CO3)c1	i	4	-7
39	Cc1[nH]nc2c1C(c1ccccc1)N(Cc1ccccc1)C2=O (centres undefined)	.	-23	-3
40	O=C(NCC[C@H]1CC[C@@H](NS(=O)(=O)c2ccc(F)cc2)[C@@H](CO)O1)c1ccc2c(c1)OCO2	i	-9	-5

no.	Ecoli rRNA inh RFP	AF4-AF9 inh
31	3.7	-0.1
32	-2.1	-1.8
33	-1.7	1.0
34	17	-0.7
35	-0.1	-3.9
36	-15	-4.8
37	0.1	-1.5
38	0.5	-2.0
39	-2.8	-13
40	0.6	0.2

Continued:
no.	canonical_smiles	FGF22 binding	Ecoli rRNA inh OD600	Ecoli rRNA inh
41	O=C(C[C@H]1CC[C@H]2NC[C@H](O)COC[C@@H]2O1)Nc1ccccc1	i	-6	0
42	Cc1ccc(S(=O)(=O)N2[C@@H](c3cccc(Cl)c3)C(C(=O)OC(C)(C)C)=CC[C@H]2c2cccc(Cl)c2)cc1	i	11	10
43	C[C@@H]1CN([C@@H](C)CO)C(=O)c2cccc(NC(=O)Nc3ccccc3)c2O[C@H]1CN(C)Cc1ccc(C(=O)O)cc1	i	4	1
44	COc1ccc(NC(=O)Nc2ccc3c(c2)C(=O)N([C@H](C)CO)C[C@@H](C)[C@@H](CN(C)Cc2ccc(Cl)c(Cl)c2)OCCCC[C@H](C)O3)cc1	i	-1	1
45	C[C@@H]1CN([C@H](C)CO)C(=O)Cc2cc(NS(=O)(=O)c3ccccc3)ccc2O[C@@H]1CN(C)Cc1ccc(C(=O)O)cc1	i	3	0
46	CN(C)C(=O)C[C@@H]1CC[C@H]2[C@@H](COC[C@@H](O)CN2C(=O)C2CCOCC2)O1	i	2	3
47	CCCNC(=O)[C@@H]1[C@@H](CO)[C@@H]2Cn3c(ccc(-c4ccc(F)cc4)c3=O)[C@@H]2N1CCC	i	-6	-2
48	Cc1ccc(S(=O)(=O)NN=Cc2c(O)ccc3ccccc23)cc1	i	-59	-21
49	O=C(C1CCCCC1)N1C[C@H]2[C@@H](c3ccccc31)[C@@H](CO)N2C(=O)c1ccccc1F	i	8	-2
50	O=C(O)C[C@H]1C[C@H]2c3cc(NC(=O)NC4CCCC4)ccc3O[C@H]2[C@H](CO)O1	i	-2	3

no.	Ecoli rRNA inh RFP	AF4-AF9 inh
41	-2.0	-1.1
42	1.2	-4.0
43	2.8	-1.0
44	-0.8	2.4
45	-1.7	-2.5
46	16	-2.2
47	1.8	1.5
48	-8.8	3.9
49	-2.1	0.1
50	-6.0	-1.0

The results go on:
no.	canonical_smiles	FGF22 binding	Ecoli rRNA inh OD600	Ecoli rRNA inh
51	CNC[C@H]1Oc2ccc(NC(=O)Nc3ccc4c(c3)OCO4)cc2CC(=O)N([C@@H](C)CO)C[C@@H]1C	i	6	1
52	CO[C@H]1CC[C@@H]2CCOc3c(C#N)cccc3C(=O)N(C)C[C@@H](c3ccccc3)CC(=O)N(C)C[C@H]1O2	i	9	5
53	COc1ccc(-c2cnc3c(c2)C(=O)N([C@@H](C)CO)C[C@H](C)[C@H](CN(C)C(=O)Cc2ccccn2)O3)cc1	i	16	6
54	CO[C@@H]1CC[C@@H]2CCOc3c(C#N)cccc3C(=O)N(C)C[C@@H](OC)[C@H](C)C(=O)N(C)C[C@@H]1O2	i	1	-1
55	O=C(Cc1ccncc1)NCC[C@H]1CC[C@@H](NC(=O)C2CC2)[C@@H](CO)O1	i	5	4
56	O=C(C[C@@H]1C=C[C@@H](NC(=O)CC2CC2)[C@H](CO)O1)NCC(F)(F)F	i	-5	0
57	COc1ccc(NC(=O)N(C)C[C@H]2Oc3ccc(NC(=O)CCCCCC(=O)Nc4ccccc4N)cc3C(=O)N([C@H](C)CO)C[C@H]2C)cc1	i	8	3
58	O=C(C[C@@H]1CC[C@H](NC(=O)c2cccnc2)[C@H](CO)O1)NCc1ccncn1	i	11	3
59	COc1cccc(S(=O)(=O)N[C@H]2CC[C@@H](CCn3cc(-c4ccccc4OC)nn3)O[C@@H]2CO)c1	i	-5	-5
60	CC(C)CCNC(=O)c1[nH]c(C(F)(F)F)nc1-c1ccccc1	i	-16	-8

no.	Ecoli rRNA inh RFP	AF4-AF9 inh
51	0.3	2.8
52	-0.1	-0.3
53	-2.6	0.0
54	-1.2	0.1
55	-0.4	0.7
56	-2.0	-1.8
57	0.9	-3.8
58	-1.1	-1.8
59	1.6	0.8
60	6.5	-1.9

Going on with the list:
no.	canonical_smiles	FGF22 binding	Ecoli rRNA inh OD600	Ecoli rRNA inh
61	COc1ccccc1CNC(=O)C[C@@H]1C[C@@H]2c3cc(NC(=O)Nc4ccccc4F)ccc3O[C@@H]2[C@@H](CO)O1	i	2	1
62	CCCN(C)C[C@@H]1OCCCC[C@H](C)Oc2ccc(NC(=O)c3ccccc3)cc2C(=O)N([C@@H](C)CO)C[C@@H]1C	i	-7	0
63	C[C@@H]1CN([C@H](C)CO)C(=O)CCCn2cc(nn2)CO[C@@H]1CN(C)Cc1ccc2c(c1)OCCO2	i	1	0
64	COc1ccc(S(=O)(=O)N(C)C[C@@H]2OCCCC[C@@H](C)Oc3ccc(NS(C)(=O)=O)cc3C(=O)N([C@H](C)CO)C[C@@H]2C)cc1	i	7	2

no.	Ecoli rRNA inh RFP	AF4-AF9 inh
61	1.7	1.9
62	0.2	5.8
63	-2.7	-1.9
64	-2.2	-1.2
